# RecA intein inh: Mtb RecA intein splicing inhibitors, primary screen, biochemical, fluorescence, HTS. hit rate 0.75% among 290,000. cell-free RecA intein splicing. inhibition, %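 (about 9 µM by stock and volumes)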; in the data active = inhibition above about 30%; inconclusive = no clear call, values can overlap the other calls;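 note: 0% = vehicle wells and 100% = reference inhibitor control wells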
# Target sequence (P9WHJ3 whole entry, looked up): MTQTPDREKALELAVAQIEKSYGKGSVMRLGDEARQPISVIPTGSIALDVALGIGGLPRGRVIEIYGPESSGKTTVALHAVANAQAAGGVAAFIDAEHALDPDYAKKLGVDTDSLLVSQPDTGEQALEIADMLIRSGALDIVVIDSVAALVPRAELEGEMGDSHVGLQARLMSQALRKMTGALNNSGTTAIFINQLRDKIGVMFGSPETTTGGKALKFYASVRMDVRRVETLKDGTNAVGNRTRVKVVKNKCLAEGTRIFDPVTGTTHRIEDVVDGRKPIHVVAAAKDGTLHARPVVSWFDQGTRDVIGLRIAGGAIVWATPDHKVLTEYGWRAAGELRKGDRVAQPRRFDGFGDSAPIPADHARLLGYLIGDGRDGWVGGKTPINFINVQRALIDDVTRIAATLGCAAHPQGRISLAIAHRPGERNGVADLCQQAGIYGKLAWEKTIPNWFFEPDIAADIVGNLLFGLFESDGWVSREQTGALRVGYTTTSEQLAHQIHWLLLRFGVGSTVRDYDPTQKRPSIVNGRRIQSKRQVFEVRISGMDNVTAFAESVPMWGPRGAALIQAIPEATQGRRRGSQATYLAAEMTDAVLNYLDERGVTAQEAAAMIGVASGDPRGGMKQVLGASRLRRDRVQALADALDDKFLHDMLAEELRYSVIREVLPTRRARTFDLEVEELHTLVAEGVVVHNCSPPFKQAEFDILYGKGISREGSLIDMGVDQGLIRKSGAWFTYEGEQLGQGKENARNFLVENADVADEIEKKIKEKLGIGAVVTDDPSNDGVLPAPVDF
# Mtb bLac sens: beta-lactam sensitization of Mtb H37Rv, H37Rv; M. tuberculosis H37Rv growth with meropenem, percent inhibition; hits of this screen are not shown here; inhibition, % at 25 µM; hit rate 0.27% among 330,000; AID 434955, 2010;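 active = about 74% or more and at least 40 points above the plate without the antibiotic, then above 30% in a dose series; inconclusive = first-round hits that could not be retested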;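 note: growth measured after seven days incubation then overnight dye step; 0% = bacteria only wells and 100% = bacteria with antibiotic; twin plates without the antibiotic show which effects depend on it; some results filed as inactive read as strong as hits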
# Arbovirus inh: antivirals against arbovirus infection, primary screen, cell-based, full library, 10K replicate subset; inhibition, % at 10 µM; hit rate 0.37% among 200,000; AID 1251, 2008; arbovirus infection cell-based antiviral screen;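 active = inhibition from about 30%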;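 note: bluetongue infection of BSR cells; cell survival read as ATP light after 72 h; 0% = infected wells without compound and 100% = uninfected wells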
# Mtb H37Rv: M. tuberculosis H37Rv growth inhibitors, H37Rv strain (AID 1626) | M. tuberculosis H37Rv growth inhibition; higher % means a stronger effect | one-dose inhibition, % at 10 µM; IC50 in µM for titrated hits | hit rate 0.95% among 220,000;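 active = confirmed in a dose series; inconclusive = inhibition above 80% but not taken into the dose series; inactive = below 80% or under 30% at every dose of the series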;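 note: bacteria incubated seven days before Alamar blue readout; 0% = bacteria only wells and 100% = bacteria with antibiotic wells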
# YopH inh: YopH tyrosine phosphatase inhibitors, primary screen, biochemical, fluorescence Ex485/Em525 | YopH tyrosine phosphatase [Yersinia enterocolitica] | AID 898, 2007 | inhibition, %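 (about 10 µM by stock and volumes)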 | hit rate 0.16% among 140,000;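 active = inhibition of 50% or more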;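 note: controls were vehicle for no effect and minimum signal wells for full effect; inactives centre near -20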
# Arbovirus inh repeat: recorded beside Arbovirus inh, whose call it bears; inhibition, %; measured here: 10K subset replicate screen; many hits read low in the repeat;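 first of two repeat runs on a subset; 0% = infected and 100% = uninfected wells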
# An asterisk follows results filed as active; ? = inconclusive; . = no result given.
# The opening 16 records (preview)
SMILES,RecA intein inh,Mtb bLac sens,Arbovirus inh,Mtb H37Rv,YopH inh,others
O=C(Nc1nc(-c2ccc(S(=O)(=O)N3CCCCCC3)cc2)cs1)c1ccccc1,5.6,7,-4,-1%,-9,
CCN(c1ccccc1)S(=O)(=O)c1ccc(Cl)c(C(=O)N(CC2CCCO2)C2CCS(=O)(=O)C2)c1 (centres undefined),2.0,-3,2,6%,.,
CNC(=O)c1sccc1S(=O)(=O)Cc1c(Cl)cccc1Cl,-1.4,-4,6,-12%,-24,
CCS(=O)CCSc1nc2ccccc2s1 (centres undefined),2.0,-4,3,-4%,-16,
COC(=O)[C@@H](NC(=O)Nc1ccc2c(c1)OCCO2)C(C)C,2.1,-14,2,-13%,-15,
O=C(CCn1c(=O)oc2ccccc21)NCc1cccs1,0.8,1,-1,-4%,-10,
FC(F)(F)c1cc(NCc2cccs2)n2ncnc2n1,-3.7,1,3,-10%,-30,
CC(C)Oc1ccc(CCN)cc1Cl,0.5,-7,3,6%,-23,
CCC(C)C(=O)Nc1nnc(SCC(=O)Nc2ccccc2F)s1 (centres undefined),-0.6,2,1,-7%,.,
CC(=O)Nc1ccc(C(=O)OCC(=O)c2ccc(S(=O)(=O)N3CCCCC3)cc2)cc1,-2.0,-5,.,.,.,
O=c1[nH]c(N2CCN(Cc3ccccc3)CC2)nc2c1CCC2,-1.5,-3,-1,16%,.,
O=C(C1CCN(S(=O)(=O)c2ccccc2)CC1)N1CCN(Cc2ccc3c(c2)OCO3)CC1,1.4,?,.,.,.,
O=C(CNCc1ccccc1)Nc1ccc(Oc2ccccc2)cc1,1.0,3,-25,13µM*,.,
CC(=O)NNc1[nH]c2c(c(=O)c1[N+](=O)[O-])c(=O)n(C)c(=O)n2C,1.9,5,2,5%,.,
CCCc1cc(C(=O)NCc2ccco2)no1,0.3,8,-6,10%,-47,
Cc1nn(-c2ccccc2)nc1C(=O)Nc1ccc2[nH]ncc2c1,0.2,3,.,0%,.,

# Main list, from the first entry:
SMILES,RecA intein inh,Mtb bLac sens,Arbovirus inh,Mtb H37Rv,YopH inh,others
O=C(Nc1nc(-c2ccc(S(=O)(=O)N3CCCCCC3)cc2)cs1)c1ccccc1,5.6,7,-4,-1%,-9,
CCN(c1ccccc1)S(=O)(=O)c1ccc(Cl)c(C(=O)N(CC2CCCO2)C2CCS(=O)(=O)C2)c1 (centres undefined),2.0,-3,2,6%,.,
CNC(=O)c1sccc1S(=O)(=O)Cc1c(Cl)cccc1Cl,-1.4,-4,6,-12%,-24,
CCS(=O)CCSc1nc2ccccc2s1 (centres undefined),2.0,-4,3,-4%,-16,
COC(=O)[C@@H](NC(=O)Nc1ccc2c(c1)OCCO2)C(C)C,2.1,-14,2,-13%,-15,
O=C(CCn1c(=O)oc2ccccc21)NCc1cccs1,0.8,1,-1,-4%,-10,
FC(F)(F)c1cc(NCc2cccs2)n2ncnc2n1,-3.7,1,3,-10%,-30,
CC(C)Oc1ccc(CCN)cc1Cl,0.5,-7,3,6%,-23,
CCC(C)C(=O)Nc1nnc(SCC(=O)Nc2ccccc2F)s1 (centres undefined),-0.6,2,1,-7%,.,
CC(=O)Nc1ccc(C(=O)OCC(=O)c2ccc(S(=O)(=O)N3CCCCC3)cc2)cc1,-2.0,-5,.,.,.,
O=c1[nH]c(N2CCN(Cc3ccccc3)CC2)nc2c1CCC2,-1.5,-3,-1,16%,.,
O=C(C1CCN(S(=O)(=O)c2ccccc2)CC1)N1CCN(Cc2ccc3c(c2)OCO3)CC1,1.4,?,.,.,.,
O=C(CNCc1ccccc1)Nc1ccc(Oc2ccccc2)cc1,1.0,3,-25,13µM*,.,
CC(=O)NNc1[nH]c2c(c(=O)c1[N+](=O)[O-])c(=O)n(C)c(=O)n2C,1.9,5,2,5%,.,
CCCc1cc(C(=O)NCc2ccco2)no1,0.3,8,-6,10%,-47,
Cc1nn(-c2ccccc2)nc1C(=O)Nc1ccc2[nH]ncc2c1,0.2,3,.,0%,.,
COCCC(=O)N1CCCC(N2CCN(c3ccc(F)cc3)CC2)C1 (centres undefined),0.1,-1,.,.,.,
O=C(Nc1ccc2c(c1)C(=O)OC2)Nc1cccc2ccccc12,-4.9,-11,-7,1%,.,
O=C(C1CCN(S(=O)(=O)c2ccc3ccccc3c2)CC1)N1CCN(c2ncccn2)CC1,.,-8,5,-7%,-37,
CC1(C)C(=O)C2(CCCCC2)C(=O)OC1c1cccn1-c1ccc([N+](=O)[O-])cc1 (centres undefined),-3.9,-3,-7,-1%,-26,
Cc1c(C)n(Cc2ccccc2)c2ccc(C(=O)O)cc12,0.1,6,.,.,.,
COc1cccc(C(=O)NCc2ccc3c(c2)OCO3)c1,0.5,5,.,.,.,
Cc1csc2nc(CNS(=O)(=O)c3ccc(-c4ccccc4)cc3)cn12,0.5,-3,12,-4%,-31,Arbovirus inh repeat=10
O=C(O)/C=C/c1ccc(-c2cccc(C(F)(F)F)c2)o1,0.8,14,9,2%,.,
O=C(/C=C/Nc1ccccc1)c1ccc(Oc2ncccn2)cc1,-2.0,2,-10,-3%,-18,
CC(C)CN(/C=N/c1sc2c(c1C#N)CCCCC2)CC(C)C,-0.1,32,14,.,-7,
CSc1nn(CCc2ccncc2)c(=S)s1,2.4,2,9,-2%,-36,
Cc1ccccc1CN1C(=O)c2ccccc2Sc2ccc(C(=O)NCCN3CCOCC3)cc21,-28,5,.,.,.,
COc1cc(OC)cc(-c2n[nH]c(=S)n2-c2ccc3c(c2)OCO3)c1,2.6,-5,7,-1%,-11,
O=C(Nc1cccc(-n2cnnn2)c1)c1ccccc1Br,-0.1,2,.,.,.,
CCOC(=O)CN1C(=O)C(Sc2n[nH]c(-c3ccc(C)cc3)n2)CCc2ccccc21 (centres undefined),4.1,1,-18,4%,-17,
O=C(NCc1nnc(SCC(=O)N2CCCC2)o1)c1ccccc1,-3.2,?,.,.,.,
CCN1CCN(Cc2cccnc2)CC1,1.8,-5,.,.,.,
O=C(NC(=S)Nc1ccccc1[N+](=O)[O-])c1ccccc1Cl,1.3,-1,.,-2%,.,
O=c1cc(CN2CCNCC2)nc2sccn12,-1.8,5,.,.,.,
CCOC(=O)CS(=O)(=O)c1ccc2ccccc2c1,1.8,3,8,-12%,30,
Cc1ccc(CNC(=O)C(=O)NCC2OCCN2C(=O)c2cccs2)cc1 (centres undefined),6.4,1,4,-6%,-11,
CCOC(=O)c1c(NC(=O)CN2CCN(C(=O)c3ccco3)CC2)sc(C(N)=O)c1C,1.0,-9,-10,-6%,.,
O=C(c1ccc(Cl)c([N+](=O)[O-])c1)N1CCN(Cc2ccc3c(c2)OCO3)CC1,0.7,-3,1,11%,.,
c1cnc(Oc2ccc3oc4ccccc4c3c2)nc1,0.1,83,3,11%,-32,
c1ccc(CCc2nn3c(Cn4cnc5ccccc54)nnc3s2)cc1,1.1,-14,-3,0%,24,
O=C(c1c[nH]c2ccc(S(=O)(=O)N3CCC4(CC3)OCCO4)cc2c1=O)N1CCC2(CC1)OCCO2,-1.2,-5,16,-5%,.,
CCOCCn1ccc2c(OCC(=O)Nc3ccccc3OC)cccc2c1=O,1.7,14,.,.,.,
COc1ccccc1-c1cn[nH]c1-c1ccc(O)cc1O,-2.8,-1,.,.,.,
CCn1c(C)c2c([n+]1CC)CC(C)(C)CC2=O,2.0,-7,-3,-11%,-23,
COC(=O)[C@@H]1C[C@@]2(O)[C@@H](O)[C@@H](O)[C@@H](O)C[C@H]2N1Cc1ccc(Cl)cc1,1.3,-7,.,-9%,.,
O=C(O)c1cc(-c2ccc3c(c2)OCO3)nc2ccc(Cl)cc12,-2.0,-2,.,.,.,
O=C(O)Cc1ccc(NC(=O)Nc2cccc(Cl)c2)cc1,-0.3,-20,0,-4%,.,
COc1cccc(-n2nnc3c(=O)n(Cc4c(F)cccc4Cl)cnc32)c1,-2.6,7,3,5%,-29,
CCCNC(=O)CSCc1nc(-c2ccc(SC)cc2)oc1C,-1.4,3,-4,-8%,.,
COC(=O)C1=C(C)NC(=O)C1(NC(=O)c1cccnc1)C(F)(F)F (centres undefined),-4.6,-9,1,.,-33,
O=C(O)CC12CC3CC(C1)CC(n1ncc(NCc4ccc(F)cc4)c(Cl)c1=O)(C3)C2,-1.0,-1,.,11%,.,
COc1cc(OC)c(-c2nnc(-c3ccc(OC)c(OC)c3OC)o2)cc1OC,-4.7,0,-6,-2%,3,
O=C(Nc1ccc(NC(=O)C23CC4CC(CC(C4)C2)C3)cc1)c1cc(F)c(F)cc1Cl,2.4,5,-8,8%,-29,
CC(=O)Nc1cccc(NC(=O)COC(=O)C2CC3CCCC(C2)C3=O)c1 (centres undefined),-0.2,-6,.,.,.,
CCc1cccc2c(C(=O)COC(=O)c3ccc([N+](=O)[O-])s3)c[nH]c12,-1.5,100,-22,<0.2µM*,-12,
O=C(NC(Cc1c[nH]c2ccccc12)c1nnc2n1CCCCC2)c1cccs1 (centres undefined),0.6,1,7,1%,55*,
CC1CCCC(NC(=O)COC(=O)c2ccc(N(C)C)cc2)C1C (centres undefined),3.0,-23,1,3%,-14,
O=C(Nc1ccc(-c2csc(Nc3ccc(Cl)cc3)n2)cc1)c1cc([N+](=O)[O-])cc(C(F)(F)F)c1,-0.1,6,.,58%,.,
CCc1ccc(N(CC(=O)Nc2nc3ccc(C)cc3s2)S(=O)(=O)c2c(C)noc2C)cc1,.,1,-27,71%,-63,
# Following part
SMILES,RecA intein inh,Mtb bLac sens,Arbovirus inh,Mtb H37Rv,YopH inh,others
O=C(CN1C(=O)NC2(CCc3ccccc32)C1=O)c1ccc2c(c1)OCCO2 (centres undefined),2.0,-6,-5,-12%,-39,
Cc1cc2c(cc1S(=O)(=O)N(C)c1ccccc1)NC(=O)CO2,-2.8,0,-8,-6%,.,
COc1ccc(-n2c(C)nc3ccccc3c2=O)c([N+](=O)[O-])c1,-3.0,-4,.,.,.,
O=C(Nc1ccccc1Cl)NC1(C(=O)NCc2cccnc2)CCCCC1,0.4,1,.,.,.,
Cc1cccc(N(C)S(=O)(=O)c2c[nH]c3ccc([N+](=O)[O-])cc23)c1,0.8,-4,.,.,.,
CCOC(=O)C1CCN(C(=O)COc2ccc(Cl)cc2)CC1,-0.2,-1,0,-1%,-8,
COc1ccc(C2NC(=O)NC(C)=C2C(=O)OCc2ccc3c(c2)OCO3)cc1OC (centres undefined),-1.3,-1,6,-1%,4,
CC(=O)Nc1ccc(S(=O)(=O)N2CCN(C(=O)c3cccnc3)CC2)cc1,-0.1,-22,12,-8%,4,
Cc1oc2ccc(OCC(N)=O)cc2c1C(=O)OC(C)C,1.9,-3,-10,-7%,-1,
COc1ccc(NC(=O)Cn2cnc3c(cnn3-c3ccc(C)c(C)c3)c2=O)c(OC)c1,1.6,18,-18,-10%,-32,
CCOC(=O)C[C@H]1c2ccccc2S(=O)(=O)N1Cc1cc(OC)c(OC)c(OC)c1,-0.3,-11,.,-10%,.,
CCOc1ccc(CC(=O)NNC(=S)NC)cc1,0.5,14,.,0%,.,
CCC(=O)Nc1ccc(Cl)c(NC(=S)NC(=O)COc2ccc(Cl)cc2)c1,-0.9,5,-8,8%,-7,
O=C(NCC1COCCO1)c1cc(COc2c(F)cccc2F)on1 (centres undefined),1.5,-2,.,.,.,
COc1cccc(COC(=O)c2ccc3c(c2)NC(=O)C(C)S3)c1OC (centres undefined),2.1,-11,.,.,.,
NC(=O)c1cn(-c2ccccc2)nc1-c1cc2ccccc2oc1=O,-3.8,-14,5,-6%,-20,
Cc1cccc(C)c1NC(=O)Cn1cc(C=O)c2ccccc21,-0.8,1,.,.,.,
CCCNC(=O)CCC(NS(=O)(=O)c1ccc(C)cc1)C(=O)NCCC (centres undefined),-0.3,-9,-2,-6%,-11,
Cc1ccc(NC(=O)NCCSc2ccc(C)cc2)cc1,1.1,-12,-9,-6%,.,
CCCCC(=O)Nc1nnc(SCC(=O)NC2CCCC2)s1,-2.4,-9,6,-7%,-5,
COc1ccc(NC(=O)CN(C)C(=O)/C=C/c2ccc(OCc3ccccc3)cc2)cc1,0.9,3,.,.,.,
C[C@H](NC(=O)C1CC(=O)N(c2ccc(F)cc2)C1)C(=O)N1CCCCC1 (some centres undefined),-2.8,2,.,.,.,
CCOc1cc(CN2CCN(Cc3ccc(C)o3)C(CCO)C2)ccc1OC (centres undefined),0.3,-11,-6,1%,.,
O=C(OCC(=O)c1cccc2ccccc12)c1ccc(CO)cc1,3.0,-5,.,.,.,

# The list is partial, so the mix of outcomes need not match the whole.
